# Screening results (PubChem)
# SARS PLpro yeast: inhibitors of SARS-CoV papain-like protease in yeast. S. cerevisiae expressing SARS-CoV PLpro, growth rescue; control for the full effect not named in the record. Potency, µM (top dose mostly 32.9 µM), for the others: top-dose activity, positive = growth rescue. 330,000 tested, 0.19% active; active means well fitted rising curve with a large enough effect; inconclusive means small, poorly fitted or top-dose-only effect; inactive means no such curve, though single readings can be large or run the other way; also: 0% is about no effect; nearly all actives have a fitted effect of over 55% in size; growth read by luminescence after 48 h
# Cruzain noTriton: cruzain (T. cruzi) inhibition without detergent; P25779; purified cruzain, Z-FR-AMC fluorescence, no detergent; 200,000 tested, 2.3% active; Potency, µM, without a hit: max response, negative = inhibition, most hits filed as inhibitors; AID 1476;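 also: plate controls were enzyme without inhibitor for no effect and buffer without enzyme for full effect; nearly all actives have a fitted effect of over 40% in size; top concentration of the series not given in the record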
# Target sequence (P25779 123-467 limits assumed): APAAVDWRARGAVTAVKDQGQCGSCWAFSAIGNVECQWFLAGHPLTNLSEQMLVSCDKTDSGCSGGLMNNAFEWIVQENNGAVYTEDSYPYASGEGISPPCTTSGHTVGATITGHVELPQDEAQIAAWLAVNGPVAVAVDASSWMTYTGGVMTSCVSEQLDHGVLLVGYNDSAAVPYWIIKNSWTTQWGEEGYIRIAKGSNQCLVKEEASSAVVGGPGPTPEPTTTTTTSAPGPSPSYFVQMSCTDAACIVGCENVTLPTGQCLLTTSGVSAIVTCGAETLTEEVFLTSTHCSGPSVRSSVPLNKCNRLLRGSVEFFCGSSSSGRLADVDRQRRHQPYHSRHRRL
#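 Purified cruzain at 1.5 nM, pre-incubated 15 min with compound at room temperature in 100 mM sodium acetate pH 5.5, 5 mM DTT, 0.00005% Triton X-100. Reaction started with 2 uM Z-FR-AMC; AMC fluorescence increase over 60 s gives rate.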
# RE007 growth inh: less growth of the S. pombe RE007 Vpr strain | 360,000 tested, 0.21% active | S. pombe RE007 Vpr strain, BacTiter-Glo ATP luminescence, 24 h; control for the full effect not named in the record | Potency, µM (highest dose often 92.2 µM), for the others: at the highest dose activity change, negative = less growth; active = well fitted falling curve with a large enough effect; inconclusive = small, poorly fitted or top-dose-only effect; inactive = no such curve, though single readings can be large or run the other way;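 also: % is scaled to controls: 0 for no effect and ±100 for the full control effect; nearly all actives have a fitted effect of over 50% in size; the assay follows cell death caused by Vpr and the record does not say whether a fall means rescue or toxicity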
#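 Fission yeast strain RE007, carrying one chromosomally integrated HIV-1 vpr copy, was seeded at OD 0.01 in PMG+AL medium with 23 nL pinned compound. After 24 h at 30 °C and 99% humidity, viability was read by BacTiter-Glo luminescence.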
# StopGo reporter: lowers the luciferase signal of an FMDV 2A StopGo reporter; human cells with a luciferase reporter of 2A StopGo recoding; control for the full effect not named in the record; Potency, µM (series often up to 57.9 µM), without a hit: at the top dose signal change, negative = less light; 410,000 tested, 1.2% active; AID 1159524; active = well fitted falling curve with a large enough effect; inconclusive = small, poorly fitted or top-dose-only effect; inactive = no such curve, though single readings can be large or run the other way; tested in HEK293T cells; also: % is scaled to controls: 0 for no effect and ±100 for the full control effect; nearly all actives have a fitted effect of over 45% in size; luciferase light after 4 h
# LASV entry inh: Lassa virus entry inhibition | 300,000 tested, 1.2% active | Lassa virus pseudotype entry inhibition, cell reporter; control for the full effect not named in the record | Potency, µM (doses to about 37.9 µM), for inactives: at the top dose activity change, negative = inhibition, most hits filed as inhibitors; active means well fitted inhibition curve with a large enough effect; inconclusive means small, poorly fitted or top-dose-only effect, or effect the other way; inactive means flat fitted curve, though single readings scatter; tested in HEK293 cells; also: % is scaled to controls: 0 for no effect and ±100 for the full control effect; nearly all actives have a fitted effect of over 50% in size; luciferase read-out
# Cruzain inh Det: blocks cruzain activity in presence of Triton detergent; P25779; purified cruzain, Z-FR-AMC fluorescence, 0.01% Triton; Potency, µM, for the others: max response, negative = inhibition, usual class: inhibitors; 200,000 tested, 0.43% active; AID 1478;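 also: plate controls were neutral wells for no effect and buffer without enzyme for full effect; nearly all actives have a fitted effect of over 40% in size; top concentration of the series not given in the record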
#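 15 min RT preincubation of 1.5 nM cruzain with compound, then 2 uM Z-FR-AMC added; kinetic AMC fluorescence, 60 s delta. Triton X-100 0.01%, pH 5.5.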
# Marburg entry inh: blocks Marburg virus binding to or entry into cells; Potency, µM (series often up to 37.8 µM), for inactives: top-dose activity change, negative = inhibition, usual class: inhibitors; 300,000 tested, 1.8% active; Marburg virus pseudotyped entry inhibition, cell reporter; control for the full effect not named in the record; about a third of the inactives were read at about 46 µM; active = well fitted inhibition curve with a large enough effect; inconclusive = small, poorly fitted or top-dose-only effect, or effect the other way; inactive = flat fitted curve, though single readings scatter; tested in HEK293 cells; about a fifth of its hits are not listed in these tables; also: % is scaled to controls: 0 for no effect and ±100 for the full control effect; luciferase read-out
# NS1 function inh: influenza NS1 inhibition; S. cerevisiae slowed by influenza A NS1, growth recovery by OD600; Potency, µM (titrated, usually from 46.1 µM), for inactives: top-dose activity, positive = more growth; 270,000 tested, 0.4% active; active means well fitted rising curve with a large enough effect; inconclusive means small, poorly fitted or top-dose-only effect; inactive means no such curve, though single readings can be large or run the other way; also: nearly all actives have a fitted effect of over 50% in size
#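 A cell-based growth assay was used: compounds that relieve NS1-induced slow growth of budding yeast raise OD600. Assay medium was yeast nitrogen base with ammonium sulphate and -URA supplement, pH 6.0, with 2% galactose.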
# * hit, by the source's call; ? = inconclusive; . = not tested or not shown; & = joins results of further samples; [ ] = dose if it differs, or a comment. Unless noted, calls follow the shape of the dose curve; as a rule, active = well fitted curve in the direction sought with a large enough effect; inconclusive = small, poorly fitted or top-dose-only effect, or another doubt; inactive = no such curve, though single readings can be large; an effect the other way counts as inactive or inconclusive. Potency is read from the fitted curve at half-maximal effect.
SMILES,SARS PLpro yeast,Cruzain noTriton,RE007 growth inh,StopGo reporter,LASV entry inh,Cruzain inh Det,Marburg entry inh,NS1 function inh
O=C(COC(=O)C12CC3CC(CC(O)(C3)C1)C2)Nc1ccccc1OC(F)F,?,3%,10%,9%,2%,-2.0%,0%,-11%
CCCn1nc2cc(C(=O)NCc3ccc(C)cc3)ccc2c1OC,-10%,5%,14%,3%,.,0.9%,.,-9%
Cc1nc2c(C)cccn2c1/C(O)=C1\C(=O)C(=O)N(CCN(C)C)C1c1ccccc1 (stereo not given),1%,.,4%,0%,-4%,.,16%,2%
O=C(NNS(=O)(=O)c1ccc2ccccc2c1)c1cccnc1,15%,3%,7%,24%,?,-0.4%,0%,-6%
CC1=C(C(N)=O)C(c2ccccc2F)NC(=O)N1 (stereo not given),5%,-1%,3%,-15%,6%,6.6%,6%,10%
O=C(O)C1=C(C2CCCCC2)C(=O)c2ccccc21,.,.,-8%,?,?,.,-2%,.
C#CCOC(=O)c1csc2nnsc12,10%,0%,-3%,-4%,10%,-2.6%,-4%,-2%
N#CCc1c[nH]c2ccc([N+](=O)[O-])cc12,.,.,6%,-18%,18%[46.1 µM],.,-1%[46.1 µM],.
CN(C)CC1CCC/C(=C/c2ccc(Cl)cc2)C1=O (stereo not given),.,.,-4%,40µM*,?,.,-3%,.
CSCC[C@H](NC(=O)N1CCn2c1nc1ccccc12)C(=O)NCc1ccc(C)cc1,?,.,6%,-10%,.,.,.,-4%
O=C(NC1CCCCC1)C(c1ccco1)N(C(=O)C(F)(F)F)C1CC1 (stereo not given),-10%,4%,-8%,-20%,5%,-1.0%,8%,0%
CCOc1ccc(NC(=O)CSc2nnc(CNC(=O)c3cccs3)o2)cc1,?,.,8%,-1%,4%[46.1 µM],.,-2%[46.1 µM],-11%
CCCCN(C1CCS(=O)(=O)C1)S(=O)(=O)c1ccc(C(C)C)cc1 (stereo not given),1%,.,3%,7%,0%,.,-12%,.
Cc1cccc(OC(=O)N2CCOCC2)c1,1%,-4%,-4%,20%,?,6.2%,?,-8%
CCOC(=O)c1nc(-c2ccc3c(c2)OCO3)[nH]c1C,-12%,-7%,-8%,31%[activator],.,-3.7%,.,-44%
Cc1ccc(CNC(=O)C(Cc2ccccc2)NS(=O)(=O)c2cccs2)cc1 (stereo not given),5%,-8%,0%,.,?,-2.3%,?,-6%
CCCCOC(=O)c1ccc(NC(=O)c2cnc3ccc(C)cn3c2=O)cc1,.,-2%,.,-1%,.,0.6%,7%[46.1 µM],.
O=C1CCCc2nc(N3CCc4ccccc43)ncc21,-1%,-7%,-6%,78%[activator],?,-9.8%,?,-12%
Cc1c(C(=O)N2CCNCC2)oc2ccccc12,-1%,.,-8%,3%,-22%[46.1 µM],.,-3%[46.1 µM],-4%
CCOc1cc(N2CCOCC2)c(OCC)cc1NC(=O)COC(=O)c1ccc(Cl)nc1,2%,.,4%,?,-1%[46.1 µM],.,6%[46.1 µM],.
COc1ccccc1CN(C)C(=O)COC(=O)c1c(C)noc1C,-1%,.,4%,-7%,?,.,7%[46.1 µM],.
CCCC(=O)N1CCN(Cc2ccc3c(c2)OCO3)CC1,4%,-2%,.,-5%,-3%,-1.6%,?,0%
CC(C)c1ccc(NC(=O)CCCN2C(=O)NC(C)(C)C2=O)cc1,4%,.,17%,-14%,?,.,2%,.
COc1ccc(N(CC(=O)Nc2ccc(OC)c(Cl)c2)S(=O)(=O)c2c(C)noc2C)cc1,9%,20%,11%,?,?,2.6%,2%&-12%,-9%
Cc1cccc(CCNC(=O)C2CCN(S(=O)(=O)c3ccccc3)CC2)c1,0%,.,9%,-18%,-19%,.,-4%[46.1 µM],-3%

# Of the compounds above, these have two or more sulfur atoms:
SMILES,SARS PLpro yeast,Cruzain noTriton,RE007 growth inh,StopGo reporter,LASV entry inh,Cruzain inh Det,Marburg entry inh,NS1 function inh
C#CCOC(=O)c1csc2nnsc12,10%,0%,-3%,-4%,10%,-2.6%,-4%,-2%
CCOc1ccc(NC(=O)CSc2nnc(CNC(=O)c3cccs3)o2)cc1,?,.,8%,-1%,4%[46.1 µM],.,-2%[46.1 µM],-11%
CCCCN(C1CCS(=O)(=O)C1)S(=O)(=O)c1ccc(C(C)C)cc1 (stereo not given),1%,.,3%,7%,0%,.,-12%,.
Cc1ccc(CNC(=O)C(Cc2ccccc2)NS(=O)(=O)c2cccs2)cc1 (stereo not given),5%,-8%,0%,.,?,-2.3%,?,-6%

# Random excerpt: two entries already listed
SMILES,SARS PLpro yeast,Cruzain noTriton,RE007 growth inh,StopGo reporter,LASV entry inh,Cruzain inh Det,Marburg entry inh,NS1 function inh
O=C(COC(=O)C12CC3CC(CC(O)(C3)C1)C2)Nc1ccccc1OC(F)F,?,3%,10%,9%,2%,-2.0%,0%,-11%
Cc1ccc(CNC(=O)C(Cc2ccccc2)NS(=O)(=O)c2cccs2)cc1 (stereo not given),5%,-8%,0%,.,?,-2.3%,?,-6%

# Remaining list, next part.
SMILES,SARS PLpro yeast,Cruzain noTriton,RE007 growth inh,StopGo reporter,LASV entry inh,Cruzain inh Det,Marburg entry inh,NS1 function inh
O=C(NNc1ncnc2c1cnn2-c1ccccc1)c1ccccc1,.,-11%,.,30%,-21%[46.1 µM],1.0%,.,.
Cc1ccc2nc(SCC(=O)N(CC(C)C)c3c(N)n(CC(C)C)c(=O)[nH]c3=O)[nH]c2c1,?,-8%,-12%,-4%,8%,2.0%,5%,-6%
CC(NCC(=O)Nc1ccccc1C(=O)NC1CC1)c1cccc(Cl)c1 (stereo not given),-1%,.,0%,-10%,-5%[46.1 µM],.,?,.
CC(N)Cc1c[nH]c2cc3c(cc12)OCCO3 (stereo not given),1%,-10%,-15%,-19%,7%,3.0%,?,-2%
S=c1nc(NCc2cccc(Cl)c2)c2ccccc2[nH]1,-1%,.,-11%,14%,.,.,.,1%
Cn1c(=O)c2[nH]c(COc3ccc(C(C)(C)C)cc3)nc2n(C)c1=O,1%,.,-4%,20µM*,.,.,.,-3%
CC(=O)Nc1ccc(C(=O)NC(CC(=O)O)c2ccc(Cl)cc2)cc1 (stereo not given),16%[6.58 µM],-1%,21%,19%,12%,9.4%,0%,-2%
CC(Sc1nnc2ccc3ccccc3n12)C(=O)Nc1ccc(Cl)cc1 (stereo not given),.,-8%,.,-7%,13%[46.1 µM],-2.2%,-5%[46.1 µM],.
[2H]c1c([2H])c([2H])c(-c2nc(N3CCCCCC3)sc2C(=O)c2ccccc2)c([2H])c1[2H],-15%,-11%,6%,-16%,-22%,-3.1%,?,-2%
COc1cc(OC)cc(/C(N)=N/O)c1,-2%,.,-5%,-15%,8%,.,23%,-1%
Cc1ncc(CO)c(/C=N/NC(=S)Nc2ccc(Cl)c(Cl)c2)c1O,11%,.,10%,-10%,.,.,.,0%
Cc1ccc2c(c1)nnn2C1CCN(S(=O)(=O)c2ccc(C(=O)NC3CCCC3)cc2)CC1,2%,17%,7%,?,?,1.6%,?,-5%
CC(C)Oc1ccc(C2C(C#N)=C(N)Oc3c2c(=O)oc2ccccc32)cc1 (stereo not given),13%,5%,12%,?,6%,-2.6%,?,9%
O=C(CSc1nnnn1C1CC2C=CC1C2)Nc1ccc(C(=O)O)cc1 (stereo not given),3%,.,-6%,-4%,3%,.,22%,.
CCCN1CCN(CC(O)COC(c2ccc(OC)cc2)c2ccc(OC)cc2)CC1 (stereo not given),-1%,.,-6%,-2%,-21%,.,-24%,-6%
CC1CN(c2ccccc2)c2nc3c(c(=O)[nH]c(=O)n3C)n2C1 (stereo not given),-1%,.,4%,-23%,-17%[46.1 µM],.,-29%[46.1 µM],5%
CCOc1cccc2c1OC(c1cc(OC)c(OC)c(OC)c1)N1N=C(c3ccc(C)o3)CC21 (stereo not given),-21%,-8%,?,2%,-4%[46.1 µM],-6.5%,?,-7%
O=C(NC(=S)NCc1ccco1)c1ccc([N+](=O)[O-])cc1,14%,.,-26%,53%[activator],-2%,.,?,.
Cc1ccc(NC(=O)CCn2nc(C)cc2C)c(C)c1,?,-7%,-10%,-11%,1%,-1.0%,-1%,0%
COc1ccccc1CN(Cc1cc2cc3c(cc2[nH]c1=O)OCCO3)Cc1nnnn1Cc1ccco1,-4%,?,-8%,-9%,-3%,-11%,-7%,14%
O=C(CN1C(=O)C2C3c4ccccc4C(c4ccccc43)C2C1=O)Nc1ccccc1C(=O)O (stereo not given),5%,?,16%,5%,-11%,-2.4%,?,?
CCOC(=O)c1cc(=O)n2[nH]c(-c3ccc(C)cc3)cc2n1,0%,15%,-13%,30%,17%,4.6%,22%,-7%
CSc1nc(N)nc(SCC(=O)c2ccccc2)c1C#N,-8%,-9%,?,?,-21%,-0.8%,24%,?
CC(=O)N1CCc2cc(S(=O)(=O)Nc3ccc(C)cc3)ccc21,-3%,.,4%,25%,-1%,.,?,1%
CCC(C)n1c(SCC(=O)Nc2ccccc2C(=O)OC)nc2ccsc2c1=O (stereo not given),.,?,.,-40%,8%[46.1 µM],-3.6%,.,.
SMILES,SARS PLpro yeast,Cruzain noTriton,RE007 growth inh,StopGo reporter,LASV entry inh,Cruzain inh Det,Marburg entry inh,NS1 function inh
O=C(Nc1nc2nc(-c3ccccc3)cc(=O)n2[nH]1)c1ccccc1,1%,-4%,3%,-26%,-2%,-0.8%,0%,3%
Cc1csc(NC(=O)c2cccs2)n1,-18%,-25%,-26%,30%,?,-3.6%,0%[46.1 µM],-18%
Cc1cc(C)n(-c2nc3ccccc3nc2Nc2cccc(C(=O)NCCc3ccccc3)c2)n1,.,14%,.,-18%,4%[46.1 µM],-0.4%,4%[46.1 µM],.
CCCCn1c(-c2ccc(Br)cc2F)nc2c1c(=O)[nH]c(=O)n2CC(C)C,3%,.,-3%,?,?,.,?,-2%
Cc1ccc(C)c2c3c([nH]c12)-c1nonc1CC3,-12%,5%,-10%,-2%,-8%,-9.4%,10%,-15%
CC1CCCN(C(=O)Cn2nnc(-c3ccc(N(C)C)cc3)n2)C1 (stereo not given),-10%,.,-13%,54%[activator],.,.,.,7%
